Assay outcomes deposited in PubChem BioAssay by Broad Institute.
Calb FLC: C. albicans growth modulation with fluconazole; C. albicans CaCi-2 (fluconazole-resistant clinical isolate) + fluconazole, Alamar Blue growth, 48 h; growth inhibition, % (concentration not given with the values); AID 1979; hit rate 0.57% among 300,000;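 active means most replicates above 75%; inconclusive means exactly half above 75%; inactive means most below 75%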;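 further: all wells also contain fluconazole at 8 µg/ml as a sub-toxic cotreatment; 0% = median of DMSO wells and 100% = median of geldanamycin control wells; wells of about 8 µL received 7.5 nL stock; the first replicate is given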
Beta apoptosis: blocks beta cell apoptosis | hit rate 0.8% among 300,000 | INS-1E cytokine-induced death, ATP luminescence, 48 h; percent of positive-control rescue, neutral wells zero | protection from apoptosis, % (test concentration not listed) | AID 435005;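 active means all replicates at 75% or more, or half of them and the mean; inconclusive means half reach 75% but not the mean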;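 further: 0% = cytokine-treated negative control wells and 100% = positive control rescue; higher means more ATP so stronger rescue from cytokine killing; wells of about 40 µL received 100 nL stock; the first replicate is given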
T cruzi inh: T. cruzi replication inhibition; AID 1885; hit rate 1.4% among 300,000; T. cruzi beta-gal in NIH3T3, luminescence, 90 h; inhibition, % (test concentration not listed);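 active means mean inhibition across valid replicates above about 55%, limit read from the data; inconclusive means mean below that limit but half or more replicates reach it; inactive means mean below it, under half of replicates reach it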;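 further: signal also drops with host cell toxicity which is not excluded here; 0% = plate median of DMSO wells and 100% = zero luminescence signal; higher percent means less beta-gal luminescence so fewer parasites; stock transfer was 50 nL into about 50 µL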
ALR inh: inhibitors of human sulfhydryl oxidase ALR; P55789; purified ALR, DTT oxidation, H2O2 HRP-luminol luminescence; inhibition, % (concentration not given with the values); hit rate 3.8% among 290,000;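 active means mean and each replicate at 75% or more; inconclusive means only one of the two met; inactive means neither met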;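 further: stock transfer was 7.5 nL into about 7.5 µL; 0% = neutral wells and 100% = wells with inactivated enzyme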
Target sequence (P55789 whole entry, looked up): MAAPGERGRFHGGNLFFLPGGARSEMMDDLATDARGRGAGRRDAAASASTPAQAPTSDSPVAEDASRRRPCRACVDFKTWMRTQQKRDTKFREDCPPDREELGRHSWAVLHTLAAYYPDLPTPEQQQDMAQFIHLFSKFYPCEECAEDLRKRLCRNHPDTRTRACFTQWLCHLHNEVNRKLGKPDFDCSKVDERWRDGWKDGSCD
AF4-AF9 inh: MLL-AF4/AF9 protein interaction inhibition; P42568; AlphaScreen, biotin-AF4 peptide binding to FLAG-AF9; inhibition, % at 10 µM; hit rate 0.47% among 350,000;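 active means every replicate reaching a set inhibition limit, whatever the replicate mean, cut at about 25% in these data; inconclusive means mean inhibition reaches that limit but some replicates miss it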;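 further: 0% = plate neutral control median and 100% = total signal loss; the record names both 10 and 1 µM as test concentration; the first replicate is given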
Target sequence (P42568 whole entry, looked up): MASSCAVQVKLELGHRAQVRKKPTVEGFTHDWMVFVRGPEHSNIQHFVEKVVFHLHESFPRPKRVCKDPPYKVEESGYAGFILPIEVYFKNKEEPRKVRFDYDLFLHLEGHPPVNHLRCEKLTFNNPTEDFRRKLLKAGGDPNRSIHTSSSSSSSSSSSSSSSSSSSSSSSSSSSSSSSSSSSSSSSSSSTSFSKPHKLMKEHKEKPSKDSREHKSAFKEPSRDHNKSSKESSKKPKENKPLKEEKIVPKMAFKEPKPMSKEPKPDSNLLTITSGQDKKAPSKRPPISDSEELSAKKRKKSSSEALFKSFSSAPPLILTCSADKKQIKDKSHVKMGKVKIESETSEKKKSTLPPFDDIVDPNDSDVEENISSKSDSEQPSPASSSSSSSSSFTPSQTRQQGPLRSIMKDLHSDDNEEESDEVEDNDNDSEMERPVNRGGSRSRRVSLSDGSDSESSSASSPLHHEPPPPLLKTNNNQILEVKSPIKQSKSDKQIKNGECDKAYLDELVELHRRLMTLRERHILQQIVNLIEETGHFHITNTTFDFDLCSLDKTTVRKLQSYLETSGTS
FGF22 binding: shifts melting point of recombinant human FGF22 | calls only at 9.99 µM | AID 651658 | Q9HCT0 | recombinant FGF22 thermal shift, SYPRO orange fluorescence; percent of sucrose octasulfate shift, DMSO zero | hit rate 1.5% among 340,000;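 active means melting point raised past a set limit in the mean and every replicate; inconclusive means no clear call; three in four hits are not shown here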
Target sequence (Q9HCT0 whole entry, looked up): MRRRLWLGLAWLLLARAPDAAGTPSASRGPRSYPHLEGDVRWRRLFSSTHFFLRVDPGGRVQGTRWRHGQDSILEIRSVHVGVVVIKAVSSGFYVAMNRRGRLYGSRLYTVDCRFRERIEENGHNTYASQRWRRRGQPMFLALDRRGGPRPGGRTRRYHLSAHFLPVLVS
RanGTP-Imp inh: disruptors of Ran-importin-beta complex formation – biochemical, FRET, CFP-Ran, YFP-importin-beta, homogeneous, primary screen | cell-free CFP-Ran/YFP-importin-beta FRET ratio | hit rate 1.1% among 300,000 | inhibition, % (concentration not given with the values) | AID 2216;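 active means most replicates above 15%; inconclusive means exactly half above 15%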;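 further: 0% = DMSO wells and 100% = Ran loaded with GDP instead of GTP; wells of about 40 µL received 100 nL stock; the first replicate is given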
Ecoli rRNA inh: selective bacterial rRNA inhibition in E. coli. E. coli WT GFP vs humanized-ribosome RFP mutants, fluorescence, 24 h; active compounds read low; DMSO median 0, no signal -100. GFP signal change (wild-type ribosome), % (no concentration beside the values). hit rate 1.6% among 350,000;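 active means significant combined selectivity score with lowered wild-type GFP, culture density cut under 30%, mutant RFP and density less affected; inactive means any of these conditions unmet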; further: one replicate is shown; some compounds called inactive have numbers as strong as hits
Ecoli rRNA inh OD600: also measured in Ecoli rRNA inh; calls as there; OD600 change, %; measured here: OD600 growth;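 optical density of the mix in the first replicate; 0 = DMSO median and -100 = no signal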
Ecoli rRNA inh RFP: also measured in Ecoli rRNA inh; calls as there; RFP signal change, %; measured here: RFP humanized mutant strains;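 first replicate; 0 = DMSO median and -100 = no signal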
Starred values were filed as active, the others as inactive; i = inactive; u = inconclusive; x = not tested or not shown; & = joins results of further samples; ! = not active in a repeat. A portion of the library (hit frequency here may not be typical).

SMILES	Calb FLC	Beta apoptosis	T cruzi inh	ALR inh	AF4-AF9 inh	FGF22 binding	RanGTP-Imp inh	Ecoli rRNA inh	Ecoli rRNA inh OD600	Ecoli rRNA inh RFP
O=C(CSc1ncn[nH]1)Nc1ccc([N+](=O)[O-])cc1Br	21	-5	-8	-2	2.5	i	0.6	-2	3	-0.8
CCOc1cc(CNc2ccc3c(c2)OCCO3)cc(Br)c1OCC	-4	17	43	18	x	x	-3.1	x	x	x
O=C(CN(c1ccc(Cl)cc1)S(=O)(=O)c1ccccc1)N1CCN(c2ccccc2)CC1	-7	-1	21	-24	x	x	-3.9	x	x	x
COc1ccc(-c2nc(CN3CCN(c4cc(C)nc(C)c4)CC3)c(C)o2)c2ccccc12	84*	21	36	-20	26*	i	6.7	-42	-63	-8.1
O=C(CCNS(=O)(=O)c1ccc(Br)cc1)NCCCSc1ccccc1	x	-1	x	x	-0.4	i	x	-51	-59	-2.1
COc1cccc(S(=O)(=O)NCC(=O)N2CCCCCC2)c1	-16	-10	-14	x	-3.5	i	0.1	6	7	-0.4
COc1ccc(C)cc1N(C)C(=O)c1coc(=O)c2ccccc12	-6	-9	12	-4	x	x	1.6	x	x	x
Cc1ccc(NC(=O)c2cccnc2C(=O)Nc2ccc(C)cc2)cc1	-6	-1	-8	x	-0.9	i	-1.0	16	10	-4.4
CCOc1ccc(C(=O)Nc2ccc(Cc3ccncc3)cc2)cc1Br	65	x	74*	-2	0.4	i	4.7	-30	-42	1.3
CC(C)C[C@@H]1NC(=O)N(CCN2CCOCC2)C1=O	1	-3	-20	-4	x	x	-1.6	x	x	x
COc1ccc(C(CNC(=O)c2oc3ccc(C)cc3c2C)N2CCCCC2)cc1 (stereo not drawn)	1	x	30	-18	3.7	i	1.2	0	-7	0.6
O=C(Cc1ccc(S(=O)(=O)N2CCOCC2)s1)NCC1CCCCC1	4	-6	8	3	x	x	-2.2	x	x	x
O=C(CN1CCCCCC1)Nc1cc([N+](=O)[O-])ccc1Cl	0	4	-3	-1	1.1	i	-1.3	-7	-13	3.3
CCOc1ccccc1N1CCN(C(=O)C(F)(F)F)CC1	-26	-8	-10	22	x	x	1.1	x	x	x
CC1CCC(N2CC(=O)N(Cc3ccc4c(c3)OCO4)C(c3ccc(F)cc3)C2=O)CC1 (stereo not drawn)	-25	2	28	9	x	x	3.5	x	x	x
COc1ccc(/C=C/C(=O)c2ccc(NC(=O)c3cccs3)cc2)cc1OC	0	26	-4	0	x	x	6.7	x	x	x
CC1(c2ccc(Cl)cc2Cl)NC(=O)N(CC(=O)Nc2ccc3[nH]c(=O)[nH]c3c2)C1=O (stereo not drawn)	x	3	-2	-3	4.5	i	6.4	0	7	-1.1
COc1cccc(CNS(=O)(=O)c2ccc3c(c2)CCN3C(=O)C2CC2)c1	-16	3	3	-17	-2.4	i	-0.4	21	21	0.4
CCOC(=O)Nc1ccc(S(=O)(=O)Nc2onc(C)c2C)cc1	1	x	-18	27	-2.7	i	1.1	8	13	2.6
CCN1CCC(=NNC(=O)c2ccc(C)c([N+](=O)[O-])c2)CC1	-4	-6	5	5	x	x	-3.2	x	x	x
COc1ccc(Cl)cc1NC(=O)CN(C)C(=O)Cn1cnnn1	x	-5	x	-9	-0.9	i	x	5	4	-3.0
CCCC(=O)Nc1c(-c2ccccc2OC)c(=O)c2ccccc2n1C	18	x	x	-1	-1.8	i	5.5	14	8	3.7
C[C@@H](C(=O)O)[C@H]1C[C@]1(C)[C@H](NC(=O)OCc1ccccc1)c1ccccc1	2	-6	-2	6	-5.0	i	-1.1	-7	-6	-2.8
O=C(c1ccc2nc[nH]c2c1)N1CCN(c2cccc(C(F)(F)F)c2)CC1	-10	-4	28	-7	-1.6	i	5.1	-8	-33	-3.1
CCOc1ccc(C(=O)NCC(=O)N2CCN(c3ccccc3O)CC2)cc1	8	2	6	7	-6.4	i	1.7	-1	8	0.6
CC1Sc2ccc(C(=O)OCc3ccccc3Cl)cc2NC1=O (stereo not drawn)	2	9	-10	-5	-23	i	7.7	9	16	-1.2
CC(C)c1ccc(CN2CCC(Oc3ccc(C(=O)N4CCCC4)cc3)CC2)cc1	9	2	35	-10	3.8	i	21*	5	6	3.2
O=C(NC(=S)N1CCOCC1)C12CCC3CC(CC(C3)C1)C2	-2	-4	-22	-2	-1.5	i	-4.1	-7	-8	-2.0
COc1ccc(C(=O)Nc2c(N)nc(SCC(=O)NCC3CCCO3)[nH]c2=O)cc1 (stereo not drawn)	x	0	8	-1	-0.1	i	x	6	8	-1.0
CC1CN(C(=O)CN2C(=O)NC3(CCCC3)C2=O)C(=Nc2cccc(S(=O)(=O)N(C)C)c2)S1 (stereo not drawn)	-3	0	-6	-2	1.1	i	x	4	2	1.2
COC(=O)c1ccc2nc(-c3ccc4c(c3)OCO4)cn2c1	3	-1	-7	-9	-1.3	x	-2.0	23	22	-0.9
COc1ccc(CN2CCN(C(C)C(=O)NC(C)c3ccc(F)cc3)CC2)cc1F (stereo not drawn)	-5	-5	25	-1	-0.2	i	-3.9	4	-3	0.0
CCc1ccc(C(=O)NNc2ccc(F)cc2F)cc1	93*	4	7	1	0.3	i	-2.7	-6	-1	-3.2
O=C(NC1CCCCC1)C(c1ccc2ncccc2c1)N(Cc1ccco1)C(=O)c1ccc2c(c1)OCCO2 (stereo not drawn)	47	-6	13	-4	x	x	2.3	x	x	x
COc1ccc(CNC(=O)/C=C/c2ccc(OCCCF)cc2)cc1	-3	-2	2	-7	x	x	3.6	x	x	x
O=C1C(CCS(=O)c2ccccc2)C(=O)N(c2ccccc2)N1c1ccccc1 (stereo not drawn)	x	1	-23	x	-1.9	i	-5.2	x	x	x
COc1ccccc1C1/C(=C(\O)c2ccc3c(c2)OCCO3)C(=O)C(=O)N1CCCn1ccnc1 (stereo not drawn)	3	-3	-15	-1	-0.6	i	-1.2	-1	1	-3.1
CCCc1nc2ccc(NC(=O)c3cccs3)cc2c(=O)n1Cc1ccc(Cl)cc1	u	15	52	-5	-4.2	i	-4.9	1	1	3.4
COc1cc(/C=N/N2C(C)CCCC2C)cc(OC)c1O (stereo not drawn)	1	-3	12	100*	0.9	i	6.9	-3	11	-2.6
c1ccc(-c2nc(N3CCCC3)nc3ccccc23)cc1	-5	-10	18	-2	-29	i	34*	-6	-10	2.7

Copied from the list.
Reading for O=C(c1ccc2nc[nH]c2c1)N1CCN(c2cccc(C(F)(F)F)c2)CC1 in Ecoli rRNA inh RFP: -3.1
Reading for O=C(CN1CCCCCC1)Nc1cc([N+](=O)[O-])ccc1Cl in Ecoli rRNA inh: -7
Reading for CCCc1nc2ccc(NC(=O)c3cccs3)cc2c(=O)n1Cc1ccc(Cl)cc1 in Ecoli rRNA inh OD600: 1
Reading for COC(=O)c1ccc2nc(-c3ccc4c(c3)OCO4)cn2c1 in AF4-AF9 inh: -1.3
Reading for COc1ccc(/C=C/C(=O)c2ccc(NC(=O)c3cccs3)cc2)cc1OC in Beta apoptosis: 26
Reading for COc1cccc(S(=O)(=O)NCC(=O)N2CCCCCC2)c1 in AF4-AF9 inh: -3.5

Random excerpt: 4 entries already listed.
SMILES	Calb FLC	Beta apoptosis	T cruzi inh	ALR inh	AF4-AF9 inh	FGF22 binding	RanGTP-Imp inh	Ecoli rRNA inh	Ecoli rRNA inh OD600	Ecoli rRNA inh RFP
COc1ccc(C(=O)Nc2c(N)nc(SCC(=O)NCC3CCCO3)[nH]c2=O)cc1 (stereo not drawn)	x	0	8	-1	-0.1	i	x	6	8	-1.0
CCc1ccc(C(=O)NNc2ccc(F)cc2F)cc1	93*	4	7	1	0.3	i	-2.7	-6	-1	-3.2
CCCc1nc2ccc(NC(=O)c3cccs3)cc2c(=O)n1Cc1ccc(Cl)cc1	u	15	52	-5	-4.2	i	-4.9	1	1	3.4
COc1ccc(Cl)cc1NC(=O)CN(C)C(=O)Cn1cnnn1	x	-5	x	-9	-0.9	i	x	5	4	-3.0

Later entries.
SMILES	Calb FLC	Beta apoptosis	T cruzi inh	ALR inh	AF4-AF9 inh	FGF22 binding	RanGTP-Imp inh	Ecoli rRNA inh	Ecoli rRNA inh OD600	Ecoli rRNA inh RFP
CCOC(=O)c1c(C)[nH]c(C=O)c1Cc1cccc(Cl)c1	4	-3	17	24	1.1	i	1.7	-2	-3	-6.3
CC(C)(C)NC(=O)C1CCC(CNS(=O)(=O)c2cccc3nsnc23)CC1 (stereo not drawn)	3	3	15	-2	-4.8	i	1.0	1	3	-0.5
O=C(NCCCO)NC(=S)c1cccc2ccccc12	5	4	x	-1	-5.6	i	-0.5	6	5	-1.0
CN1CCN(S(=O)(=O)c2cccc(C(=O)NCCOc3ccccc3)c2)CC1	0	-1	3	0	0.7	i	u	2	10	2.4
CCC1CCCCN1CCNC(=O)c1[nH]c(C)c(C(C)=O)c1C (stereo not drawn)	1	x	-12	-3	x	x	-3.1	x	x	x
CCOc1ccc(S(=O)(=O)N(C)CC(=O)NCc2ccccn2)cc1	2	-1	-16	-3	-0.2	i	4.9	10	14	-0.5
COc1ccc2cc(C(=O)NCC3CCCO3)[nH]c2c1 (stereo not drawn)	0	-5	-9	-18	-3.2	i	1.1	2	6	0.7
Cn1c(=O)c2c(ncn2CC(=O)OCC(=O)Nc2cc(Cl)ccc2C#N)n(C)c1=O	x	2	x	-3	3.8	i	x	9	6	0.1
CCCCS(=O)(=O)CC(COc1ccccc1)OC(=O)c1ccccc1 (stereo not drawn)	-4	-7	-21	-12	x	x	6.5	x	x	x
Fc1cccc(CCN2C(=S)NC[C@@H]2CC2CCCCC2)c1	-10	5	3	15	6.0	i	3.9	-23*	-8.5*	1.0*
O=C(Nc1ccc(N2CCN(C(=O)c3ccco3)CC2)cc1)c1ccc(Br)cc1	x	1	-1	0	-28	i	-2.0	2	10	-0.9
O=C(O)Cn1c(O)c(C=Nc2ccccc2)sc1=S	15&18	-1	1&-6	71	x	x	31*!	x	x	x
O=C1SC(SCc2ccccc2)=N/C1=C\c1ccc(C(=O)O)cc1	4	-2	-9	36	-3.3	x	0.9	13	-2	-4.6
COc1cccc(CC(NC(C)=O)C(=O)NC2CCN(S(=O)(=O)c3ccc(C)cc3)CC2)c1OC (stereo not drawn)	-6	-1	11	-4	-0.2	x	1.5	3	1	-1.3
O=C1CC[C@@H](CN(Cc2ccccn2)Cc2nc(Cc3cccc(C(F)(F)F)c3)no2)N1	-14	2	3	-1	-0.5	i	-1.3	-6	0	1.0
CCN1CCSc2ccc(C(=O)NCc3ccccc3F)cc21	-2	-1	8	27	25*	i	1.4	2	-15	1.5
